Screening data from PubChem BioAssay.
A1 inh = inhibitors of the anti-apoptotic protein A1, read as caspase activation; AID 2462; caspase activation, % (no concentration beside the values); 0.066% of 330,000 active; MEF A1-2A-BIM cells, Caspase-Glo 3/7 luminescence, 3 h; percent of clofoctol response, vehicle zero;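 active = over half of replicate activation scores above 10%, or exactly half above 10 with the replicate mean above 10; inconclusive = replicate mean below 10 yet half the replicates above 10; inactive = over half of replicates below 10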;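 note: wells of about 30 µL received 50 nL stock; many hits fall short of the cut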
T cruzi repl = blocks replication of Trypanosoma cruzi | T. cruzi beta-gal in NIH3T3, luminescence, 90 h | inhibition, % (concentration not given with the values) | 1.4% of 300,000 active;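 active = mean inhibition across valid replicates above about 55%, limit read from the data; inconclusive = mean below that limit but half or more replicates reach it; inactive = mean below it, under half of replicates reach it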;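 note: signal also drops with host cell toxicity which is not excluded here; 0% = plate median of DMSO wells and 100% = zero luminescence signal; higher percent means less beta-gal luminescence so fewer parasites; stock transfer was 50 nL into about 50 µL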
RanGTP-Imp inh = disruptors of Ran-importin-beta complex formation – biochemical, FRET, CFP-Ran, YFP-importin-beta, homogeneous, primary screen; cell-free CFP-Ran/YFP-importin-beta FRET ratio; inhibition, % (no concentration beside the values); 1.1% of 300,000 active;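 active = most replicates above 15%; inconclusive = exactly half above 15%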;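 note: 0% = DMSO wells and 100% = Ran loaded with GDP instead of GTP; wells of about 40 µL received 100 nL stock; the first replicate is given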
Beta apoptosis = blocks beta cell apoptosis; protection from apoptosis, % (no concentration beside the values); 0.8% of 300,000 active; INS-1E cytokine-induced death, ATP luminescence, 48 h; percent of positive-control rescue, neutral wells zero; AID 435005;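 active = all replicates at 75% or more, or half of them and the mean; inconclusive = half reach 75% but not the mean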;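 note: 0% = cytokine-treated negative control wells and 100% = positive control rescue; higher means more ATP so stronger rescue from cytokine killing; wells of about 40 µL received 100 nL stock; the first replicate is given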
Calb FLC = C. albicans growth modulation with fluconazole; 0.57% of 300,000 active; AID 1979; growth inhibition, % (concentration not given with the values); C. albicans CaCi-2 (fluconazole-resistant clinical isolate) + fluconazole, Alamar Blue growth, 48 h;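 active = most replicates above 75%; inconclusive = exactly half above 75%; inactive = most below 75%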;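 note: all wells also contain fluconazole at 8 µg/ml as a sub-toxic cotreatment; 0% = median of DMSO wells and 100% = median of geldanamycin control wells; wells of about 8 µL received 7.5 nL stock; the first replicate is given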
B2AR ag = agonists of human beta-2 adrenergic receptor inducing internalization; Am2.2-beta2AR cells, FAP receptor internalization, flow cytometry; reference of the scale not given here; response, % (test concentration not listed); 0.43% of 340,000 active; AID 504454; P07550;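 active = response above a set limit, near 3 SD of response in nonfluorescent compounds, cut at about 42% in these data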;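 note: stock transfer was 100 nL into about 11 µL; a reference agonist was the positive control; negative values mostly stem from fluorescent compounds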
Target sequence (P07550 whole entry, looked up): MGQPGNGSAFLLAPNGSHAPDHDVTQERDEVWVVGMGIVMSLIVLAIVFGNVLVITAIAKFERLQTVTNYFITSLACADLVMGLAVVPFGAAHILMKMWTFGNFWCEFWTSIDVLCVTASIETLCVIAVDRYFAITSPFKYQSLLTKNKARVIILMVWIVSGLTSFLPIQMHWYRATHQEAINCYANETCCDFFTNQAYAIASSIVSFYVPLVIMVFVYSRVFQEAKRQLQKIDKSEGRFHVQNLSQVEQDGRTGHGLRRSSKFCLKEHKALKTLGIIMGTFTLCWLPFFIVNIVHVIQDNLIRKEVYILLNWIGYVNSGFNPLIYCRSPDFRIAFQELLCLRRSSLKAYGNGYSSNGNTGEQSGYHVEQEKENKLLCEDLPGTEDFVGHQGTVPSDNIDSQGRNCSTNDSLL
LANA-H2A inh = blocks KSHV LANA binding to histone H2A/H2B; Q9QR71; inhibition, % (no concentration beside the values); 0.6% of 320,000 active; cell-free LANA-H2A/H2B peptide, fluorescence polarization; in the data active = inhibition mostly above about 10%, no sharp cut-off; inactive = mostly below about 6.7%;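 note: stock transfer was 7.5 nL into about 10 µL; 0% = median of vehicle wells and 100% = median of positive control wells; one replicate is shown; the record names a cut of 25% in any replicate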
UCH37 inh = human UCH37 deubiquitinating enzyme inhibition; purified proteasome/UCH37, Ub-AMC cleavage fluorescence; inhibition, % (concentration not given with the values); 0.33% of 330,000 active; AID 588478;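 active = mean of two replicates above 20%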;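 note: 0% = compound-free wells with enzyme and 100% = wells lacking proteasome; stock transfer was 100 nL into about 20 µL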
Target sequence (Q9Y5K5 whole entry, looked up): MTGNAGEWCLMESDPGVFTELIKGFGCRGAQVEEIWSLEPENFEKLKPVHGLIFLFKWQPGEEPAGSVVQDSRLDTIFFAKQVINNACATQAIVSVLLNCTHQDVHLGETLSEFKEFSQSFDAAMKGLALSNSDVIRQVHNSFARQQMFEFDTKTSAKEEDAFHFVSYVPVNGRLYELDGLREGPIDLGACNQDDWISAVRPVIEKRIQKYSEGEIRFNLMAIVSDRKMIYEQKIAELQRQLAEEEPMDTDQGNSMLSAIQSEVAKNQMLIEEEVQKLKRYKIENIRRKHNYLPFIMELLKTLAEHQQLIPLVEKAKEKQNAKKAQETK
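Reagent: Ub-AMC substrate; assay system: Proteasome-associated human UCH37 deubiquitinase; controls: no-proteasome and no-compound wells; read-out: % inhibition of Ub-AMC cleavage fluorescence; timing: 30 min preincubation with enzyme, 25 min cleavage at room temperature; signal: AMC fluorescence from Ub-AMC cleavage, excitation 355 nm, emission 460 nm; buffer or medium: Tris-HCl pH 7.4 plus ovalbumin, ATP-MgCl2, DTT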
Active calls of the source: *; i = inactive; ? = inconclusive; · = no result given; & = joins results of further samples.

mol,A1 inh,T cruzi repl,RanGTP-Imp inh,Beta apoptosis,Calb FLC,B2AR ag,LANA-H2A inh,UCH37 inh
O=C(CN1C(=O)C2CC=CCC2C1=O)OCCN1C(=O)c2ccccc2C1=O (stereo not given),0.6,2,?,-7,0,2,2.6,2.1
Cc1ccc(S(=O)(=O)Oc2ccccc2/C=N/Nc2ccc(C(=O)O)cc2)cc1,0.5,1,0.0,-6,-8,1,1.8,·
CCC/C=N/NC(=O)c1ccc(F)cc1,0.8,5,-1.5,0,-9,-6,2.1,·
COc1cc(/C=C2\SC(=S)N(C(Cc3ccccc3)C(=O)O)C2=O)ccc1O (stereo not given),-0.3,5,-13,-2,27,-16,-13,12
COc1cc(OC)cc(C(=O)NC(C(=O)Nc2ccc3c(c2)OCO3)C(C)C)c1 (stereo not given),1.4,·,·,-1,·,2,11*,-0.1
COc1ccccc1NC(=S)NCc1cccs1,-0.2,-13,-2.7,-5,-3,1,4.3,2.2
COCCN1C(=O)N(c2ccc(OC)cc2)C(=O)C1CC(=O)Nc1cccc(F)c1 (stereo not given),0.0,-12,2.0,·,-1,1,0.1,4.7
C/C(=N\NC(=O)c1c(Br)c(C)nn1C)c1cccc(NC(=O)c2ccccc2F)c1,0.1,-5,3.1,3,-2,8,2.5,·

Five of these compounds in another layout.
Screens in order – A1 inh | T cruzi repl | RanGTP-Imp inh | Beta apoptosis | Calb FLC | B2AR ag | LANA-H2A inh | UCH37 inh
- Cc1ccc(S(=O)(=O)Oc2ccccc2/C=N/Nc2ccc(C(=O)O)cc2)cc1
→ 0.5 | 1 | 0.0 | -6 | -8 | 1 | 1.8 | ·
- CCC/C=N/NC(=O)c1ccc(F)cc1
→ 0.8 | 5 | -1.5 | 0 | -9 | -6 | 2.1 | ·
- COc1cc(/C=C2\SC(=S)N(C(Cc3ccccc3)C(=O)O)C2=O)ccc1O (stereo not given)
→ -0.3 | 5 | -13 | -2 | 27 | -16 | -13 | 12
- COc1cc(OC)cc(C(=O)NC(C(=O)Nc2ccc3c(c2)OCO3)C(C)C)c1 (stereo not given)
→ 1.4 | · | · | -1 | · | 2 | 11* | -0.1
- COc1ccccc1NC(=S)NCc1cccs1
→ -0.2 | -13 | -2.7 | -5 | -3 | 1 | 4.3 | 2.2

(continued)
mol,A1 inh,T cruzi repl,RanGTP-Imp inh,Beta apoptosis,Calb FLC,B2AR ag,LANA-H2A inh,UCH37 inh
O=C1CCCCC1Sc1nnc(Nc2ccccc2)s1 (stereo not given),-2.5,3,3.7,-2,-7,-1,-1.6,5.2
C=C(C)C(=O)N1CC2(CC(c3cccc(NC(=O)/C=C\C)c3)=NO2)C[C@H]1C(N)=O (stereo not given in full),0.6,0,-0.1,-4,-19,0,3.2,3.8
CCCCNC(=O)COC(=O)c1cc(Br)ccc1Cl,0.1,9,3.6,-6,36,2,-1.3,1.6
CCOC(=O)CCP(=O)(O)C(O)c1ccccc1 (stereo not given),0.9,-8,2.1,0,-10,-1,3.7,0.2
Cn1c(=O)c(C(=O)CN2CCCCCC2)c(N)n(Cc2ccccc2)c1=O,0.9,8,0.0,-8,-9,-4,-2.6,5.7
COc1cccc(C(=O)NCCCn2ccnc2)c1,0.7,-10,0.9,-7,-9,0,0.5,-0.1
O=C(CSc1nnnn1C1CC1)Nc1ccc(S(=O)(=O)N2CCOCC2)cc1,1.3,·,·,-6,·,2,1.7,0.5
Cc1cc(C)c(C)c(S(=O)(=O)N2CCC(C(=O)OCC(=O)NC3CCS(=O)(=O)C3)CC2)c1C (stereo not given),0.0,·,·,-1,·,1,1.7,1.0
COC(=O)CN1C(=O)NC2(CCCc3ccccc32)C1=O (stereo not given),0.8,-1,10,-5,1,2,-6.9,-1.0
O=S(=O)(Nc1ccc(-c2ccc3nncn3n2)cc1)c1ccccc1F,-0.7,-4,4.1,8,2,4,3.9,4.9
O=C(COC(=O)c1cc(-c2cccs2)nc2ccccc12)NC1CCS(=O)(=O)C1 (stereo not given),0.0,-4,7.8,2,29,-5,-2.8,i
COc1ccc(Nc2nnc(Cc3ccccc3)c(=O)[nH]2)c(OC)c1,-0.7,-12,1.6,-1,12,9,-2.5,-4.8
CC(C)[C@@H](C(=O)N[C@@H](Cc1ccccc1)C(=O)O)N1C(=O)N2CCc3c([nH]c4ccccc34)[C@@]2(C)C1=O,-3.7,-9,4.5,·,10,-1,2.7,-1.1
c1nc(N2CCC3(CC2)OCCO3)c2[nH]cnc2n1,0.9,-9,1.4,-10,0,0,-1.0,4.0
Cc1cc(C)n(CC(C)O)c(=O)c1C#N (stereo not given),-0.7,-14,3.9,·,-4,-5,-2.1,4.6
O=C(Cc1ccc(Br)cc1)OCC(=O)N1CCCCCC1,-0.1,·,·,4,·,-6,-3.5,3.0
COc1ccc(NC(=O)NCCc2ccc(Cl)cc2)cc1OC,-0.1,3,0.8,-4,23,-1,0.2,0.9
NC(=NCCc1c[nH]c2ccccc12)NC(=O)c1ccc(Cl)cc1,1.1,29,1.2,-7,4,16,1.4,3.8
COc1cc(CO)cc(-c2cc(CO)cc(OC)c2OC)c1OC,?,2,1.0,-1,8,13,4.4,26*
Cc1ccc(C)c(NS(=O)(=O)c2ccc(OCC(=O)NCc3ccccn3)cc2)c1,0.5,-2,1.2,-2,?,-3,6.5,1.6
CCOc1ccc(-c2csc(NC(=O)c3ccc(S(=O)(=O)N4CCc5ccccc5C4)cc3)n2)cc1,0.0,10,4.4,-10,17,-7,1.9,-11
O=C(CNCc1ccccc1)NCCCN1CCCC1=O,1.3,-15,-0.6,-3,3,-6,-0.1,2.9
CC(=O)NCc1ccc(S(=O)(=O)N/N=C/c2ccccc2)cc1,-0.2,-13,5.6,-8,-10,-4,-4.9,·
CCCCN(C)C(=O)c1cccc(OC2CCN(CC(C)(C)C)CC2)c1,0.4,8,17*,-6,-10,1,2.2,0.9
COC(=O)c1ccc(C)c(NC(=S)NCc2ccc(Cl)cc2)c1,0.4,8,-2.0,-1,-9,-16,-1.7,1.6
O=C(Nc1ccccc1)N1CCSc2cc(Cl)ccc21,-0.5,-2,4.1,-6,-6,5,7.6,2.0
O=C(NC(=O)c1ccccc1)Nc1ccc(Cl)cn1,-11,-7,2.6,4,29,-11,-2.4,-1.9
CCCc1cc(=O)[nH]c(SCCOc2ccc(Cl)cc2)n1,-0.2,11,2.9,-12,39,-6,2.2,7.3
Cn1ccnc1C(O)(c1nnc(-c2ccccc2)o1)C(F)(F)F (stereo not given),0.2,-8,5.3,-8,-2,3,2.6,-0.6
CCCCn1c(N)c(N(Cc2ccccc2OC)C(=O)CCSC)c(=O)[nH]c1=O,-1.1,6,2.9,-3,-12,-1,-0.3,2.0
COc1cccc(NC(=O)CN(C)S(=O)(=O)c2ccc3c(c2)n(C)c(=O)c(=O)n3C)c1,0.1,3,0.2,-5,8,-3,-5.7,4.9
COc1cccc(CC(=O)Nc2ncc(C)s2)c1,0.1,-3,3.7,6,-4,-10,-1.1,0.7
CC1CCN(C(=O)CNC(=O)CNS(=O)(=O)c2ccccc2)CC1,0.3,1,6.9,-3,7,-3,-1.5,1.1
CCc1ccc(NC(=O)N2CCN(c3ccc(F)cc3)CC2)cc1,·,-36,-1.0,·,-20,3,·,1.8
CC(CN1CCCCC1)c1ccccc1 (stereo not given),1.2,-3,-0.8,·,5,-9,1.0,4.4
CC(C)C[C@H]1COCCS(=O)(=O)N1Cc1cccc(F)c1,-1.3,11,-4.1,2,-3,-6,-0.2,4.8
Cc1cccc(C)c1NC(=O)CN(C)C(=O)c1cccc(-n2cccc2)c1,0.7,-7,-2.4,·,-3,-10,-2.5,3.1
CC(C)(C)NC(=O)C1CC(=O)OC12CCOC(C)(C)C2 (stereo not given),0.0,-14,1.8,-13,-8,-8,-4.8,2.8
C(=C\c1nc(-c2cccnc2)no1)/c1ccccc1,-4.2,-4,1.4,-6,6,-16,2.5,0.4
COC(=O)c1ccc(Sc2ccccc2NS(=O)(=O)c2ccc(NC(C)=O)cc2)nc1,0.3,-8,-0.2,0,20,5,-2.2,2.9
Cc1ccc(C(NC(N)=O)c2ccccc2C)cc1 (stereo not given),0.0,-4,-2.8,-3,-19,11,1.7,0.0
CCOC(=O)C1=C(C)Nc2nc(SCC(=O)OC)nn2C1c1cc(F)cc(F)c1 (stereo not given),0.5,-2,2.1,4,-6,-9&12,-0.6,0.8
CC(=O)c1cccc(N=Cc2c(O)c3ccccc3oc2=O)c1,1.6,-10,0.7,-9,2,9,5.2,5.7
CCOc1ccc(CCNC(=O)c2cccc3c2C(=O)N(CCOC)C3)cc1OCC,0.3,30,2.8,-6,-1,0,-1.7,1.9
C/C(=C\C(=S)Nc1ccccc1)Nc1cccc2ccccc12,-0.9,44,0.5,-2,-7,-9,2.7,-61
COc1cccc(-n2nnnc2SCC(=O)NCCc2ccc(OC)c(OC)c2)c1,0.6,-12,-0.8,-8,2,8,-5.5,1.5
COc1ccc(C(=O)Nc2ccc(Cl)cc2C(=O)NCc2ccco2)cc1,0.7,-2,0.3,3,0,2,3.3,-23
CCOc1ccc(-c2nc(S(=O)(=O)c3ccccc3)c(NCc3cccnc3)o2)cc1,0.6,-8,0.9,-1,1,-6,-0.8,-2.2
OCCC1CN(Cc2nc3c(s2)CCCC3)CCN1CCc1ccccc1 (stereo not given),0.3,28,-0.4,-1,-22,-3,0.0,0.4
COc1ccc(NC(=O)CSc2nnc(-c3cccnc3)o2)cc1,-0.2,1,-1.3,-1,0,0,-0.3,2.5
Cc1ccc(S(=O)(=O)NCC(=O)OC(C)C(=O)NC(=O)NC2CCCCC2)cc1C (stereo not given),-0.9,·,·,-4,·,-5,0.6,1.0
CC(C)C(=O)NCCc1nc(-c2ccccc2)no1,-0.9,-8,-0.4,-5,1,-8,4.5,0.3
CCCCCCC1/C(=N\NC(=O)c2ccccc2)CCC1C(=O)OC (stereo not given),0.0,-7,-4.4,3,-6,8,-2.9,·
COc1ccc(CCNC(=O)COc2cccc3c2OC(C)(C)C3)cc1OC,-1.9,-8,3.9,-5,3,-1,0.6,-0.8
CCOC(=O)NC(c1ccc(C(C)C)cc1)C(Cl)(Cl)Cl (stereo not given),0.5,-13,0.1,·,-18,-6,-4.7,1.2
CCOCc1[nH]c(=S)[nH]c(=O)c1Cc1ccc(OCC)cc1,0.4,14,0.6,-1,-9,-1,-2.6,6.3
O=C(NCc1cccs1)C1CC1,0.5,-6,4.6,0,7,-7,-8.5,5.8
Cc1ccc(C)c(NC(=S)Nc2cccnc2)c1,-0.6,-3,-3.5,-2,-5,4,15,-0.1

No enrichment for hits, and some 4.3% of all compounds hit somewhere here.
